Screening data (PubChem BioAssay)
Menin-MLL FL inh = inhibitors of human menin-MLL interaction, wild-type MLL peptide. Fluorescence polarization, fluorescein-MLL peptide displacement from menin. FP activity change, % at 61.4 µM. 290,000 tested, under 10 active. AID 1766; inconclusive = falling polarisation curve, or a change in total fluorescence; inactive = total fluorescence flat and polarisation flat or rising; no compound was filed as active; the % refers to the polarisation; negative = inhibition;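 note: % of control where 0% means no effect; inhibitors lower the polarisation; unlabelled MLL peptide was the positive control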
gsp agonist = activates gsp, the McCune-Albright syndrome mutation. gsp mutant cells, cAMP HTRF, 30 min; control for the full effect not named in the record. AID 624287. Potency, µM (titrated, usually from 76.9 µM), inactives show top-dose activation (cAMP increase), hits mostly activators. hit rate 0.13% among 340,000; active = well fitted activation curve with a large enough effect; inconclusive = small, poorly fitted or top-dose-only effect, or another doubt; inactive = no such curve, though single readings can be large or run the other way; cell line not stated here;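 note: phosphodiesterase inhibitor Ro 20-1724 added with compounds to block cAMP breakdown; potency is the fitted concentration of half-maximal effect; nearly all actives have a fitted effect of over 60% in size; about a fifth of the inactives were tested at one dose only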
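Cells in DMEM/10% FBS with G418 were pretreated with compounds in DMSO plus […] (300 uM stock) for 30 min at 37C. cAMP was measured by HTRF (cAMP-d2 plus anti-cAMP antibody-K) after 30 min at room temperature.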
ClpP mod = qHTS Assay for Activators of ClpP | ATP-dependent Clp protease proteolytic subunit (Bacillus subtilis (strain 168)), P80244 | purified B. subtilis ClpP, FRET peptide cleavage, 20 min | Potency, µM (titrated, usually from 57.5 µM), inactives show at the highest dose activity change, negative = active | hit rate 1.9% among 340,000; active = well fitted falling curve with a large enough effect; inconclusive = small, poorly fitted or top-dose-only effect; inactive = no such curve, though single readings can be large or run the other way; note: potency is the fitted concentration of half-maximal effect; the source files actives as falling curves though it sought activators and does not explain the sign; nearly all actives have a fitted effect of over 65% in size; many hits overshoot -100%
Target sequence (P80244 whole entry, looked up): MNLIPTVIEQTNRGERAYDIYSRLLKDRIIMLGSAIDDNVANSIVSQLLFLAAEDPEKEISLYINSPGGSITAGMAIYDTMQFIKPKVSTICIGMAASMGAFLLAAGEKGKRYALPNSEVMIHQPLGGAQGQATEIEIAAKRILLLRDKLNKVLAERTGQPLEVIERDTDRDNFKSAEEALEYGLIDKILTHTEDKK
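Buffer: 100 mM Tris/HCl pH8, 100 mM KCl, 0.05% low protease BSA, 2.5% glycerol, 0.01% Tween-20. ClpP 10 microg/mL final; 20 min RT; delta FRET normalized to ADEP and DMSO controls.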
TRPML1 blocker = blocks the human TRPML1 channel. AID 624415. TRPML1-inducible cells, Ca2+ dye fluorescence, FDSS; hits give low values; inhibition of EC80 agonist-evoked calcium signal. hit rate 0.02% among 390,000. activity change, negative = inhibition, % (concentration not given with the values); in the data active means activity change below about -50%; inconclusive means about -30% to -50%; inactive means above about -30%;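 note: stimulus is agonist 54-4 at its EC80 concentration; % is set by controls: 0 for no effect and ±100 for the full control effect; compound concentration not given in the record; the text of the record puts the active cut at -80%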
Target sequence (Q9GZU1 whole entry, looked up): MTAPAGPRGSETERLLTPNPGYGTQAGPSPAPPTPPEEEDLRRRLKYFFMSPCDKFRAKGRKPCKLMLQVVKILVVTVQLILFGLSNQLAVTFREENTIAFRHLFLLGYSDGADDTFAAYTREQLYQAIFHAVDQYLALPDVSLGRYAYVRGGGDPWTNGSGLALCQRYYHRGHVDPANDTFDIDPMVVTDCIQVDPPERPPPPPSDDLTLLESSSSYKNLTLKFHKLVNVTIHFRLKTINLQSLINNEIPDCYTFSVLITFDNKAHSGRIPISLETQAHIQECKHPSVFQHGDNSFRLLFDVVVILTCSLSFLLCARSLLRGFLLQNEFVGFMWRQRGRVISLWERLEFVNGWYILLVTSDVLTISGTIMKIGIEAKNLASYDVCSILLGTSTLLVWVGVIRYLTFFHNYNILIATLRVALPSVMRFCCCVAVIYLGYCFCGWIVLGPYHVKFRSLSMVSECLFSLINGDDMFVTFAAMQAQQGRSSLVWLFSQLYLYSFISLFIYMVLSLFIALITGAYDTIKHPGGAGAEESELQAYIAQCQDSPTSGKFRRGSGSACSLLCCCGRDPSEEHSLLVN
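TRPML1-DL cells, Tet-induced overnight (~16 h, 37 °C) at 1,500 cells/well, were loaded with Ca8 no-wash dye plus quencher for 45-90 min at room temperature. Compounds were pinned during FDSS kinetic reading; agonist 54-4 at EC80 (4 uM final) then added.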
TRPML1 agonist = activates the human TRPML1 channel | TRPML1-expressing cells, Ca2+ dye fluorescence, FDSS; host cell line not named in the record; reference of the full effect not given here | activation, % (no concentration beside the values) | hit rate 0.12% among 410,000; in the data active = activation above about 50%; inconclusive = about 30% to 50%; inactive = below about 30%; note: 0% is about no effect; the text of the record puts the active cut at 80%
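Agonist activity was taken from a 110 s kinetic Ca2+ dye read on the FDSS after pinning compounds onto TRPML1-DL cells. The cells were seeded at 1,500/well with Tet inducer, incubated about 16 h, then dye-loaded at room temperature.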
gsp antag = antagonizes gsp, the McCune-Albright syndrome mutation | gsp-mutant cells, cAMP HTRF, 30 min; control for the full effect not named in the record | hit rate 0.4% among 340,000 | Potency, µM (series often up to 76.9 µM), for the others: top-dose activity change, negative = inhibition, actives largely listed as inhibitors; active = falling curve of any shape with a large fitted effect; inconclusive = falling curve, mostly with a smaller effect; inactive = flat or rising curve; cell line not stated here;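 note: intracellular cAMP measured with PDE inhibitor Ro 20-1724 present during compound exposure; potency is the fitted concentration of half-maximal effect; % is set by controls: 0 for no effect and ±100 for the full control effect; nearly all actives have a fitted effect of over 65% in size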
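G418-selected cells were plated in DMEM/10% FBS for 16-24 h at 37C, then treated with compounds plus the PDE inhibitor […] (300 uM solution added) for 30 min at 37C. Intracellular cAMP was measured by HTRF after 30 min lysis at room temperature.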
* marks the source's active call; other numbers are inactive results; ? = inconclusive; · = not tested or not shown; & = joins results of further samples; [ ] = dose if it differs, or a comment.

SMILES	Menin-MLL FL inh	gsp agonist	ClpP mod	TRPML1 blocker	TRPML1 agonist	gsp antag
CC(=O)c1ccc(OCCCC(=O)OCC(=O)N2CCN(c3ccccc3)CC2)cc1	-2.2	-24%	-4.4%	10	-0.8	-2%
CSCCC(NC(=O)c1ccc(Cl)cc1)C(=O)OCC(=O)NCc1ccco1 (centres undefined)	·	2%[15.4 µM]	0.0%	7	1.4	2%
COc1ccc(C(=O)Nc2ccnn2C2CCN(Cc3cccnc3)CC2)cc1	3.2	27%	1.0%	8	2.8	6%
CC(C)C(=O)c1cn(CC(=O)NCc2ccc3c(c2)OCO3)c2ccccc12	2.2	-5%	-0.3%	-3	-0.7	-6%
O=C(c1cccs1)N1CCN(C(=O)c2ccco2)c2ccccc2C1	2.4	-13%	-1.4%	5	-0.3	-1%
Cc1ccc(NC(=O)CN(C)C(=O)CSc2nc(C)cc(C)n2)cc1	·	-35%[inhibitor]	1.2%	13	0.0	11%
Cc1cccc(N2C(N)=C(C#N)C(C#N)(C#N)C2c2ccccc2)c1 (centres undefined)	0.3	-3%	14µM*	14	4.5	11%[15.4 µM]
O=S(=O)(N1CCOCC1)n1cnc2ccccc21	-0.2	43%	0.8%	-6	3.3	2%
Cc1ccc(-c2cc(N)n(Cc3cccc(Cl)c3)n2)cc1	·	·	-4.9%	-11	-0.1	·
C#CCNc1c(C)c(C)nc2ncnn12	-1.1	?	-1.1%	33	-0.8	15%
CC(C)(C)S(=O)(=O)c1ccccc1-c1noc(-c2ccccc2)c1C(N)=O	·	5%[15.4 µM]	·	-8	0.1	2%
O=C(c1cnccn1)N1CCc2ccccc21	-0.9	-9%	-0.7%	8	-0.6	5%
O=C(Cn1c(=O)n(Cc2ccc(C(=O)NCc3ccccc3Cl)cc2)c(=O)c2ccccc21)Nc1ccc(F)cc1	·	·	-7.2%	13	0.2	·
NC(=O)C1CCN(C2CC(=O)N(c3cccc(F)c3)C2=O)CC1 (centres undefined)	3.1	4%	0.7%	2	-0.7	-3%
O=C(CCNS(=O)(=O)c1ccccc1)NCCCc1ccccc1	·	8%	0.9%	17	0.0	13%
O=C(COC(=O)[C@H](Cc1ccccc1)NC(=O)c1cccs1)Nc1c(Cl)cccc1Cl	2.6	-23%	1.7%	-4	0.3	-18%
Cc1nc(Nc2nc(CSc3nc4ccccc4[nH]3)cc(=O)[nH]2)nc2ccccc12	·	-10%[15.4 µM]	0.7%	-14	3.1	-23%
COc1cc(N=Nc2ccc(Br)cc2)cc(C=O)c1O	·	2%	0.8%	14	1.6	·
COc1cc(-c2nnc3sc(-c4cccs4)nn23)cc(OC)c1OC	3.9	-20%	-6.6%	6	1.9	16%
COc1cc(CNc2ccc3[nH]c(=O)[nH]c3c2)cc(Cl)c1OCC(=O)NC(C)(C)C	-2.1	-27%	-13%	1	-1.1	-16%
OCc1cn(-c2ccccc2)nc1-c1ccc(-c2nn(-c3ccccc3)cc2CO)cc1	4.5	16%	28µM*	-1	1.6	-7%
CC1(C(=O)NS(=O)(=O)c2ccc(Br)cc2)CCN1C(=O)C/C=C/c1ccccc1 (centres undefined)	·	·	-0.3%	-12	0.0	·
CC1CN(C(=O)COC(=O)c2cncc(Br)c2)CC(C)O1 (centres undefined)	·	-26%	-2.1%	4	0.5	·
COc1ccccc1CN1C[C@@H]2C[C@@H](c3ccc(Cl)cc3)N3CCC[C@@]23C1=O	12	3%[15.4 µM]	·	44	2.7	-8%
CCN(CC)CCN1C(=O)C2C(C(=O)Nc3cccc(C)c3)C3C=CC2(O3)C1C(=O)NC1CCCC(C)C1C (centres undefined)	-5.6	1%	·	9	-0.6	12%
Cc1ccc(S(=O)(=O)N2CCCN(C(=O)c3cc4ccccc4[nH]3)CC2)cc1	-1.6	-2%[15.4 µM]	·	57	0.5	·
Cc1ccc(NC(=O)c2oc3ccc(S(=O)(=O)N4CCOCC4)cc3c2C)cc1C	1.3	-11%	?	12	1.2	-6%
Cc1ccc(OCC(=O)NNC(=O)c2ccc(-n3cncn3)c([N+](=O)[O-])c2)cc1	·	?	-1.2%	-3	-0.9	3%
CC(CCc1ccccc1)NC(=O)CN1CCc2ccccc2C1 (centres undefined)	-4.7	-16%[15.4 µM]	·	-5	2.3	6%
CCc1ccc(OCc2nnc(-c3ccccc3Br)o2)cc1	·	-10%	-0.3%	-6	4.4	-7%
O=C(O)CSCCn1cccn1	-2.6	-3%	-1.4%	-9	-0.6	-8%
CCN(c1ccccc1)S(=O)(=O)c1cc2c(cc1C)N(C)CCO2	-7.5	?	0.1%	-12	0.9	3%
CCCOC(=O)C[N+](C)(C)CCOC1CC2CCC1(C)C2(C)C (centres undefined)	-0.8	9%	-0.4%	-26	0.8	7%
CCOC(=O)C1C(c2cccc(F)c2)NC(=S)NC1(O)C(F)(F)F (centres undefined)	1.5	-49%[inhibitor]	-2.3%	10	0.8	10%
CC(C)(C)OC(=O)N1CCC(NC(=O)c2[nH]cnc2C(=O)N[C@@H](Cc2ccccc2)C(=O)OCc2ccccc2)CC1	2.2	13%	2.1%	7	1.7	-21%
CCn1nc(C)c(Oc2ccccc2O)c1C	0.5	16%	0.6%	-12	-0.9	2%
CCOC(=O)CSc1nc(N)c(C#N)c(-c2cccs2)c1C#N	2.7	?	-16%	26	-0.1	-7%
CCn1c(COc2ccc(C)cc2)nnc1SCC(=O)Nc1ccc2c(c1)OCCO2	-1.9	-11%	0.6%	4	0.3	-7%
CC1(C)CC(N2CCCCC2)=CC(=[N+]2CCCCC2)C1	-4.4	14%[15.4 µM]	-1.6%	6	-1.3	-7%
COc1cccc(CN2C(=O)c3ccccc3S2(=O)=O)c1	2.2	2%[15.4 µM]	·	-5	-0.1	-2%
CCOC(=O)c1[nH]c2ccc(Br)cc2c1NC(=O)CCN1CCC(C(=O)OCC)CC1	1.4	13%	-3.8%	-20	-1.1	?
CCc1ccc(Nc2ncnc3nc[nH]c23)cc1	3.6	50%	·	-3	1.0	7%
COc1cc2c(cc1OC)C1=C(C#N)CCC(=O)N1CC2	1.2	1%	-3.4%	-8	-0.6	10%
CCCSc1ccc2nc(NC(=O)OC)[nH]c2c1	-2.6	·	0.0%&-1.2%	31	1.0&-1.2	1%
CCc1cc2c(=O)n(CC(C)C)cnc2s1	3.6	9%	-1.6%	8	-0.8	7%

Exported field by field: 4 of the compounds above
CCn1c(COc2ccc(C)cc2)nnc1SCC(=O)Nc1ccc2c(c1)OCCO2
  Menin-MLL FL inh: -1.9 | gsp agonist: -11% | ClpP mod: 0.6% | TRPML1 blocker: 4 | TRPML1 agonist: 0.3 | gsp antag: -7%

CC1(C)CC(N2CCCCC2)=CC(=[N+]2CCCCC2)C1
  Menin-MLL FL inh: -4.4 | gsp agonist: 14%[15.4 µM] | ClpP mod: -1.6% | TRPML1 blocker: 6 | TRPML1 agonist: -1.3 | gsp antag: -7%

COc1cccc(CN2C(=O)c3ccccc3S2(=O)=O)c1
  Menin-MLL FL inh: 2.2 | gsp agonist: 2%[15.4 µM] | ClpP mod: · | TRPML1 blocker: -5 | TRPML1 agonist: -0.1 | gsp antag: -2%

CCOC(=O)c1[nH]c2ccc(Br)cc2c1NC(=O)CCN1CCC(C(=O)OCC)CC1
  Menin-MLL FL inh: 1.4 | gsp agonist: 13% | ClpP mod: -3.8% | TRPML1 blocker: -20 | TRPML1 agonist: -1.1 | gsp antag: ?

Further structures:
SMILES	Menin-MLL FL inh	gsp agonist	ClpP mod	TRPML1 blocker	TRPML1 agonist	gsp antag
Cn1nccc1C(=O)N/N=C/c1c(O)ccc2ccccc12	?	6%	-4.0%	2	4.4	-5%
CCOC(=O)N1CCN(C(=O)/C(=C\c2ccc(SC)cc2)NC(=O)c2ccccc2)CC1	0.9	4%[15.4 µM]	-1.1%	8	0.2	-11%
COc1ccccc1-c1ccc([C@@H]2C[C@H]3[C@@H](CN2)CON3C)cc1	·	-24%	-5.9%	5	-0.5	·
O=C(Cc1cccc2ccccc12)N/N=C/c1ccc(F)cc1	1.8	-39%[inhibitor]	0.2%	-15	1.9	6%
CC(NC(=O)C1CC=CCC1C(=O)O)C1CC2CCC1C2 (centres undefined)	1.9	-3%	-0.8%	5	0.2	-24%
COc1ccc(CCNC(=O)CCCOc2ccc(C)cc2)cc1OC	0.8	6%	-3.9%	35	2.4	-4%
Nc1c(C(=O)Nc2cccc(C(=O)O)c2)sc2nc3c(cc12)CCCC3	0.8	?	-15%	8	1.6	-19%
C=CCNC(=S)NC(=O)c1ccc(C)c(Br)c1	1.2	12%	-0.6%	·	·	-22%
CCOC(=O)c1ccccc1NC(=O)COC(=O)c1ccccc1C(=O)N(C)c1ccccc1	·	-5%	-15%	1	1.7	-15%
CCN1C(=O)[C@H]2[C@@H](c3ccc(-c4ccc(C(C)=O)cc4)c(OC)c3)N3CCCC[C@@]3(C(=O)OC)[C@H]2C1=O	·	?	-6.6%	79	-0.1	-21%
Cc1ccc(SCC(=O)NNC(=O)CCS(=O)(=O)c2ccccc2)cc1	·	-28%	1.3%	31	-0.4	4%
COc1ccc(-n2c(=S)[nH]c3cc(C(=O)NCCCN4CCCC4=O)ccc3c2=O)cc1	-1.1	?	-0.7%	-21	0.3	-3%
Cc1ccc(S(=O)(=O)Nc2c(C(=O)O)[nH]c3ccccc23)cc1C	2.8	19%	-0.8%	0	0.6	14%
Cc1ccc(S(=O)(=O)N2CCCCC2C(=O)N2CCN(c3ccccc3F)CC2)cc1 (centres undefined)	5.1	-55%[inhibitor]	0.5%	-12	7.4	-16%
CCOc1ccc(C(=O)NC(=S)Nc2ccccn2)cc1[N+](=O)[O-]	42[activator]	-29%	-8.3%	10	0.3	2%
O=C(COc1cc(Cl)c(Cl)cc1Cl)N1CCN(c2ccccn2)CC1	-2.3	19%	·	12	-0.6	2%
COc1cc(/C=C/CNC[C@H]2O[C@@H](n3ccc(=O)[nH]c3=O)[C@H](O)[C@@H]2O)ccc1O	·	·	-1.1%	3	0.0	5%
O=C(NCC(=O)N1CCN(c2ccccc2)CC1)c1ccccc1	3.0	-5%	·	6	-0.3	2%
COc1ccc(NC(=O)NNc2cc(N3CCOCC3)nc(N3CCOCC3)n2)cc1	-0.8	-1%	-3.3%	13	0.0	-6%
O=C(CN1CCC(O)(c2ccc3c(c2)OCO3)CC1)OC1CCCCC1	1.3	-8%	-0.9%	17	0.8	10%
COc1ccc(NC(=O)Cn2cnc3c(nc4n3CCCCC4)c2=O)c(OC)c1	·	·	-2.2%	-6	-0.6	·
Cc1ccc(-n2ccnc(NCCc3ccc(S(N)(=O)=O)cc3)c2=O)c(C)c1	·	·	-11%	20	-1.1	·
CC(=O)Nc1ccc(Br)cc1C(=O)C(=O)O	3.7	-6%	19%	11	1.2	-4%
Cc1ccccc1S(=O)Cc1ccc(C(=O)N2CCN(c3cccc(C)c3C)CC2)o1 (centres undefined)	·	·	-0.9%	4	-0.1	·
